High-throughput results: PubChem BioAssay, several laboratories
E coli growth – E. coli growth inhibition, primary screen, OD600; Escherichia coli growth, 23 h; active compounds read low; OD600 absorbance (test concentration not listed); 330,000 tested, 0.21% active;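 active = OD600 absorbance below the run mean of sample wells minus 3.6 SD, in any replicate, cut at about 0.56 in these data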;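 also: stock transfer was 300 nL into about 60 µL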
FGF22 binding – binders of human FGF22 protein, primary screen, FGF22 synaptogenesis inhibitor project, biophysical, thermal shift, single point | 340,000 tested, 1.5% active | Fibroblast growth factor 22 (Homo sapiens), Q9HCT0 | calls only at 9.99 µM | recombinant FGF22 thermal shift, SYPRO orange fluorescence; percent of sucrose octasulfate shift, DMSO zero | AID 651658, 2012;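 active = melting point raised past a set limit in the mean and every replicate; inconclusive = no clear call; three in four hits are not shown here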
Target sequence (Q9HCT0 whole entry, looked up): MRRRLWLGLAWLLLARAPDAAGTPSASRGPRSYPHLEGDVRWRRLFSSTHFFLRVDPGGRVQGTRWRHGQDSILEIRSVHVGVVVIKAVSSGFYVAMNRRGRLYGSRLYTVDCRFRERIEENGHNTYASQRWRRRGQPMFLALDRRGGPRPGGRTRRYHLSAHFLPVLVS
HNF4A DNA FP – change in binding of human HNF4A to DNA, primary screen, biochemical, fluorescence polarization, FITC-DNA; Hepatocyte nuclear factor 4-alpha (Homo sapiens), P41235; 1 h; activity change, % at 10 µM; 360,000 tested, 0.3% active; AID 1224865, 2016; in the data active = activity change above about 30%, passing the limit was not always enough;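 also: controls were the assay level and a saturating level of protein; the project sought stronger binding though the title names inhibitors; some compounds called inactive have numbers as strong as hits; positive values seem to mean higher polarization but the record does not say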
Target sequence (P41235 whole entry, looked up): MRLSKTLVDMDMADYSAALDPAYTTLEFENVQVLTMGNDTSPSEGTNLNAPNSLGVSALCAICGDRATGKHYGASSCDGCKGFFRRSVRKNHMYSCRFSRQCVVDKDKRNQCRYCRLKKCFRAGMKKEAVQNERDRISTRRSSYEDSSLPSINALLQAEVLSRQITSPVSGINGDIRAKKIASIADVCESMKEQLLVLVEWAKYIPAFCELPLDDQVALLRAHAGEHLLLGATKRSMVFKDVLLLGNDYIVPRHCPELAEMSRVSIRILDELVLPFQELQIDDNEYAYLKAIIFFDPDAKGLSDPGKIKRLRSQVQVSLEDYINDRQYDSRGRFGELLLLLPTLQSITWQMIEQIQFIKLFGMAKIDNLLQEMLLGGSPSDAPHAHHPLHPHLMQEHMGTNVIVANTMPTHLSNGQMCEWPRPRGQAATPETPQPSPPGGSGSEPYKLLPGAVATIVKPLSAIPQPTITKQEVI
Vif A3G – inhibitors of Vif binding to APOBEC3G peptide, primary screen, biochemical, TR-FRET, GST-Vif 1-94, biotin-A3G peptide, dose response retest (AID 1117319); Virion infectivity factor (Human immunodeficiency virus type 1 group M subtype B (isolate …; 260,000 tested, 0.57% active; TR-FRET GST-Vif / biotin-A3G peptide binding; higher % means a stronger effect; test concentration not given here; strong numbers were not always called active; inhibition, %; hits with a dose series show IC50 in µM;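 active = above the screen mean plus three standard deviations and confirmed in dose response; inconclusive = results disagree or hit not tested in dose response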;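 also: Vif residues 1-94 fused to GST binding biotinylated APOBEC3G peptide 110-148; 0% = full assay without inhibitor and 100% = GST in place of GST-Vif; retest series ran down from 100 µM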
ALR H2O2 inh – inhibitors of human ALR sulfhydryl oxidase, primary screen, biochemical, H2O2 detection, HRP-luminol luminescence, single point; FAD-linked sulfhydryl oxidase ALR (Homo sapiens), P55789; purified ALR, DTT oxidation; inhibition, % (no concentration beside the values); 290,000 tested, 3.8% active;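 active = mean and each replicate at 75% or more; inconclusive = only one of the two met; inactive = neither met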;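 also: stock transfer was 7.5 nL into about 7.5 µL; 0% = neutral wells and 100% = wells with inactivated enzyme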
Target sequence (P55789 whole entry, looked up): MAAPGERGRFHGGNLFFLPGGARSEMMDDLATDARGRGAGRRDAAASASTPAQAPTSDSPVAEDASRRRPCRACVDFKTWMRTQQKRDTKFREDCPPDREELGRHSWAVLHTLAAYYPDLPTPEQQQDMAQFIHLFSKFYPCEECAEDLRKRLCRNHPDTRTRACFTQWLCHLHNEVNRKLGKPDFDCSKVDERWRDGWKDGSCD
Ecoli rRNA inh – reduced GFP signal of wild-type E. coli, primary screen, bacterial rRNA inhibitor project, GFP/RFP fluorescence, OD600, single point. GFP signal change (wild-type ribosome), % (concentration not given with the values). E. coli WT GFP vs humanized-ribosome RFP mutants, 24 h; active compounds read low; DMSO median 0, no signal -100. 350,000 tested, 1.6% active;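 active = significant combined selectivity score with lowered wild-type GFP, culture density cut under 30%, mutant RFP and density less affected; inactive = any of these conditions unmet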; also: one replicate is shown; some compounds called inactive have numbers as strong as hits
AF4-AF9 inh – inhibitors of AF4 peptide binding to AF9, primary screen, biochemical, AlphaScreen, biotin-AF4 peptide, FLAG-AF9, single point | inhibition, % at 10 µM | 350,000 tested, 0.47% active | AID 651704, 2012;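 active = every replicate reaching a set inhibition limit, whatever the replicate mean, cut at about 25% in these data; inconclusive = mean inhibition reaches that limit but some replicates miss it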;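 also: 0% = plate neutral control median and 100% = total signal loss; the record names both 10 and 1 µM as test concentration; the first replicate is given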
Ecoli rRNA inh OD600 – second read-out of Ecoli rRNA inh, no call of its own (marks repeat the call); OD600 change, %; measured here: OD600 growth;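 optical density of the mix in the first replicate; 0 = DMSO median and -100 = no signal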
Ecoli rRNA inh RFP – also measured in Ecoli rRNA inh; calls as there; RFP signal change, %; measured here: RFP humanized mutant strains;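 first replicate; 0 = DMSO median and -100 = no signal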
Active calls of the source: *; i = inactive; ? = inconclusive; . = no result given; & = joins results of further samples.

Structure,E coli growth,FGF22 binding,HNF4A DNA FP,Vif A3G,ALR H2O2 inh,Ecoli rRNA inh,Ecoli rRNA inh OD600,Ecoli rRNA inh RFP,AF4-AF9 inh
CC(C)=CC1C(C(=O)Nc2ccc(Br)cn2)C1(C)C (centres undefined),0.754,.,0.7,3.9%,-3.6,.,.,.,.
CN1CCN(CCOc2ccc(Cc3ccccc3)cc2)CC1,0.682,i,7.5,4.3%,3.1,10.5,5.6,2.5,-0.2
CC(=O)c1cccc(-c2csc(N3CCC(C(N)=O)CC3)n2)c1,.,i,0.2,.,25.7,-3.4,3.0,-4.9,-8.1
C[C@H](CO)N1C[C@H](C)[C@H](CN(C)C(=O)NC2CCCCC2)OCCCC[C@H](C)Oc2ccc(N(C)C)cc2C1=O,.,i,.,.,.,-2.6,7.8,1.9,9.6
Cc1ccccc1NC(=O)N(O)C1(C#N)CCCCC1,.,i,1.5,8.7%,.,8.6,13.6,2.4,-3.9
Cn1c(=O)c2cc(S(=O)(=O)Nc3ccc4c(c3)OCO4)ccc2n(C)c1=O,0.696,.,-4.1,13.2%,11.7,.,.,.,.
Cc1ccc(NC(=O)Cn2nc(C(=O)O)c3ccccc3c2=O)cc1S(=O)(=O)N1CCCCC1,0.664,i,3.0,-9.7%,-23.3,3.6,12.8,5.4,-5.4
COc1ccc(NC(=O)CSc2nc(-c3ccco3)nc3cc(=O)[nH]n23)cc1Cl,0.692,i,-2.4,.,99.1*,-2.0,3.4,1.5,-5.6
Cc1ccc(NC(=S)N2CCN(c3ncccn3)CC2)cc1C,0.7,i,0.8,.,-2.0,-25.4,-22.2,-5.5,10.9
CCOC(=O)c1nn(-c2cccc(C)c2)c2nc(-c3ccccc3)c(C#N)c(=O)n12,0.758,.,-1.4,19.2%,-8.3,.,.,.,.
CNC(=O)C(=O)Nc1ccc(C)cc1C,0.66,i,0.6,-11.1%,2.6,24.3,20.6,2.3,0.7
NC(=O)Cn1cc(C(=O)c2cccs2)c2ccccc21,0.638,.,-2.4,10.2%,-32.8,.,.,.,.
Cn1c(=O)c2c(nc(N3CCOCC3)n2CC(=O)C23CC4CC(CC(C4)C2)C3)n(C)c1=O,0.751,.,-0.5,2.6%,-0.6,.,.,.,.
Cc1[nH]c(=O)[nH]c(=O)c1S(=O)(=O)N1c2ccc(F)cc2CCC1C (centres undefined),0.731,.,2.1,-4.6%,-7.9,.,.,.,.
CC(NC(=O)c1cccc(S(=O)(=O)N2CCN(Cc3ccccc3)CC2)c1)c1ccc(Br)cc1 (centres undefined),0.708,i,0.2,.,-0.6,6.6,1.1,0.9,0.7
N#CC1=C(N)Oc2cc(N)ccc2C1c1ccccc1Cl (centres undefined),0.686,i,-28.0,.,-6.8,-15.0,-12.4,0.7,-14.8
CCCCN1C(=O)CN(CCc2ccccc2)C(=O)C1c1ccc(OC)cc1 (centres undefined),0.724,.,-2.8,2.1%,-8.1,.,.,.,.
Cc1ccccc1Cn1c2ccccc2c2cnn(CC(=O)NCc3ccccn3)c(=O)c21,0.782,i,3.1,.,0.4,3.8,14.0,0.0,1.2
Cc1ccc(-c2cc(-c3ccc(Cl)cc3)c(C#N)c(N)n2)o1,0.67,.,11.7,24.5%,-9.8,.,.,.,.
CCOc1ccc2[nH]c3c(NCCO)ncnc3c2c1,0.641,i,1.5,-6.6%,88.7*,-14.8,-13.9,-5.8,6.9
COc1ccc(NC(=O)c2ccc(S(=O)(=O)N3CC(C)CC(C)C3)cc2)cc1S(N)(=O)=O (centres undefined),0.72,i,-5.7,-2.7%,-1.5,.,.,.,-1.2
Cc1cc2c(cc1C)C(c1cc(Br)ccc1F)CC(=O)N2 (centres undefined),0.718,i,1.3,27.6%,-3.6,.,.,.,-3.3
Cc1ccc(S(=O)(=O)Nc2nc(C)c(NC(=O)Nc3ccc(Cl)cc3Cl)s2)cc1,0.75,.,-1.6,-7.2%,4.4,.,.,.,.
c1ccc(Cn2nnc3c(NCC4CC4)ncnc32)cc1,.,i,1.8,-0.9%,.,-1.8,9.3,1.1,0.4
O=C(O)C1(O)C[C@H](O)C(O)[C@@H](O)C1 (some centres undefined),.,i,3.4,.,-2.2,14.7,10.6,5.8,-2.2
Cc1ccc(-c2cnc3c(c2)C(=O)N([C@@H](C)CO)C[C@@H](C)[C@@H](CN(C)Cc2ccccc2C(=O)O)O3)cc1,.,i,.,.,.,2.4,7.9,0.0,-0.9
O=C(Nc1ccccc1)Nc1ccccc1NS(=O)(=O)c1cccs1,0.705,.,-0.4,?,-3.2,-22.5,-30.5,-3.6,3.0
CC1=C(C)C(=O)N(CCC(=O)O)C1=O,0.709,.,6.2,9.5%,-1.6,.,.,.,.
CCN(C(=O)COC(=O)c1cccnc1SC)C1CCS(=O)(=O)C1 (centres undefined),0.728,.,-1.9,-4.5%,-3.9,6.0,5.1,-4.3,.
C[C@@H]1CN([C@H](C)CO)C(=O)c2cccc(NC(=O)c3nc4ccccc4s3)c2O[C@@H]1CN(C)C(=O)Nc1ccc(C(F)(F)F)cc1,.,i,.,.,.,-2.4,-3.6,0.0,0.5
CC1(C)Cc2c(C#N)c(SCc3ccccc3)nc(N3CCOCC3)c2CO1,0.698,.,-1.7,6.5%,26.5,.,.,.,.
COc1cccc(C(O)c2nc(-c3cccc(C(C)C)c3)cs2)c1 (centres undefined),.,i,0.3,.,.,-49.2,-74.3,-14.2,-1.1
Cc1noc(C)c1S(=O)(=O)Nc1ccc2c(c1)C(=O)N([C@@H](C)CO)C[C@@H](C)[C@@H](CN(C)CC1CCCCC1)O2,.,i,.,.,.,1.8,6.8,-0.9,1.2
CCN(CC)CCN1C(=O)c2ccccc2NC1c1ccccc1F (centres undefined),0.686,.,4.8,-2.4%,2.9,.,.,.,.
CNC(=O)C[C@H]1CC[C@@H]2[C@@H](COc3ccc(NC(=O)c4ccc(F)c(F)c4)cc3C(=O)N2C)O1,.,i,.,.,.,-1.3,-0.9,-1.0,-1.6
CCN(CC(=O)NC1CCS(=O)(=O)C1)S(=O)(=O)c1c(C)c(C)cc(C)c1C (centres undefined),0.687,i,3.0,-5.8%,-8.9,4.0,-2.1,-1.2,-0.7
Cc1cc(C)nc(SCc2cc(=O)c(OC(=O)c3cccc([N+](=O)[O-])c3)co2)n1,.,i,1.1,22.1%,38.6,11.5,15.4,3.5,-9.8
COc1ccccc1/C=C/C(=O)NCC(=O)N/N=C/c1cc(Br)ccc1OC,.,.,-5.2,-1.9%&3.3%,-34.4,.,.,.,.
COc1cccc(C2c3[nH]c4ccccc4c3C[C@H]3C(=O)N(C)CC(=O)N23)c1 (some centres undefined),0.645,i,2.2,6.0%,98.2*,11.7,3.6,4.2,0.9
O=C(N[C@H](C(=O)O)c1ccccc1)C1CCC(Cn2nnc3ccccc3c2=O)CC1 (some centres undefined),0.704,.,.,17.6%,-20.8,.,.,.,.
Cc1ccc(NC(=O)c2nc(C)n(-c3ccc([N+](=O)[O-])cc3)n2)cc1,0.673,.,0.9,-0.7%,-4.0,.,.,.,.
COCC#Cc1ccc2c(c1)O[C@H](CN(C)Cc1ccccc1F)[C@@H](C)CN([C@@H](C)CO)S2(=O)=O,.,i,.,.,.,-16.8,-50.1,32.5,6.1
COc1cccc(N2CC(NC(=O)C(=O)c3c[nH]c4ccccc34)CC2=O)c1 (centres undefined),0.684,i,-1.7,-5.5%,.,-0.3,3.5,2.6,-1.0
O=C1CCC(C(=O)OCC(=O)Nc2ccc(Cl)cc2C(F)(F)F)=NN1,0.713,i,-1.8,.,.,2.0,11.9,-3.0,-2.6
CCCNC(=O)Nc1ccc2c(c1)C(=O)N(C)[C@H]1CC[C@@H](CC(=O)NCCCN(C)C)O[C@@H]1CO2,.,i,.,.,.,4.1,-1.7,-1.7,0.3
CC1C/C(=C/c2cccn2C)C(=O)/C(=C/c2cccn2C)C1 (centres undefined),0.731,.,91.2,32.9%,-3.3,.,.,.,.
COc1cc2cc(CCCOC(=O)c3ccc(Br)cc3)oc(=O)c2cc1OC,0.697,i,1.1,.,-9.7,-24.7,-21.8,-12.2,-2.1
C[C@@H]1CN([C@@H](C)CO)S(=O)(=O)c2ccc(/C=C/c3ccccc3)cc2O[C@H]1CN(C)Cc1ccccc1,.,i,.,.,.,4.9,13.4,-4.1,5.7
Cc1noc(C)c1S(=O)(=O)Nc1ccc2c(c1)CC(=O)N([C@H](C)CO)C[C@H](C)[C@H](CN(C)C(=O)Nc1cccc3ccccc13)O2,.,i,.,.,.,-0.5,-0.2,1.0,-0.6
CCCCn1c(CN2CCN(C(=O)OCC)CC2)nc2c1c(=O)[nH]c(=O)n2C,0.657,i,-0.4,2.4%,-1.9,2.0,0.4,-8.6,-0.4
COc1cc(NS(=O)(=O)c2ccc(C)cc2)c2ncccc2c1,0.779,.,-4.0,3.6%,-4.4,.,.,.,.
CC1=NN(C(=O)c2cccnc2)C(O)(C(F)(F)F)C1 (centres undefined),0.69,i,0.0,6.8%,-12.6,7.9,9.2,-0.1,-2.5
Cc1cccc(S(=O)(=O)NC(=O)C2(C)CCN2C(=O)CCc2ccccc2)c1 (centres undefined),.,i,-1.2,.,.,13.3,25.0,-2.6,-1.9
O=C(Nc1ccc(S(=O)(=O)N2CCCCC2)cc1)c1ccc(=O)[nH]c1,0.697,i,-0.6,.,.,-3.9,5.0,0.1,1.2
Cc1nc(-c2ccc(S(=O)(=O)Nc3ccc(Br)cc3F)cc2)co1,0.674,i,-0.1,.,-3.6,-4.6,-28.2,6.2,-0.1
COc1ccc(S(=O)(=O)Nc2cccc3c2O[C@@H](CN(C)S(=O)(=O)c2cn(C)cn2)[C@@H](C)CN([C@H](C)CO)C3=O)cc1,.,i,.,.,.,1.5,6.7,-5.2,-1.6
O=C(COC(=O)/C=C/c1cnc2ccccc2n1)NCC(F)(F)F,0.748,.,-0.4,-15.2%,90.7*,.,.,.,.
CCOC(=O)c1sc(C)c2c(=O)n(CCc3ccccc3)nnc12,0.748,.,-1.4,63.8%,-5.5,.,.,.,.
CCC1CCCCN1CCCNC(=O)c1ccc(/C=C2/Sc3ccccc3NC2=O)cc1 (centres undefined),0.664,i,1.3,.,-4.2,-49.5,-48.7,-0.1,16.1
CC(C)NC(=O)N1C[C@H]2[C@@H](c3ccccc31)[C@@H](CO)N2C(=O)c1cccnc1,.,i,.,.,.,2.1,14.8,-2.4,-0.4
COc1ccc(-c2nc3n(n2)C(c2ccncc2)C(C(N)=O)=C(C)N3)cc1 (centres undefined),0.688,.,0.2,-2.1%,.,.,.,.,.
CCN(CC)c1ccc2cc(-c3nnc(-c4ccccc4)o3)c(=O)oc2c1,0.783,.,-80.2,-7.8%,-8.4,.,.,.,.

Only part of the results is shown. The share of hits here may be higher or lower than overall.
